2A Renilla = FMDV 2A StopGo reporter, Renilla signal; HEK cells with a luciferase reporter of 2A StopGo recoding; 120,000 compounds, 0.32% hits; Potency, µM (doses to about 57.5 µM), without a hit: top-dose signal change, negative = less light; active means well fitted falling curve with a large enough effect; inconclusive means small, poorly fitted or top-dose-only effect; inactive means no such curve, though single readings can be large or run the other way; further: nearly all actives have a fitted effect of over 55% in size; overnight with compound
2A firefly = lowers the firefly signal of an FMDV 2A StopGo reporter; AID 1745856; HEK cells with a luciferase reporter of 2A StopGo recoding; 120,000 compounds, 0.23% hits; Potency, µM (top dose mostly 57.5 µM), without a hit: at the top dose signal change, negative = less light; active = well fitted falling curve with a large enough effect; inconclusive = small, poorly fitted or top-dose-only effect; inactive = no such curve, though single readings can be large or run the other way; further: nearly all actives have a fitted effect of over 60% in size; overnight with compound
* = called active by the depositor; ? = inconclusive; & = joins results of further samples; [ ] = dose if it differs, or a comment. On the % scale 0 is the no-effect control and ±100 the full control effect; potency means the concentration at half of the fitted maximal effect. These rows are one share of the data. The share of hits here may be higher or lower than overall.

Results follow in this order: 2A Renilla | 2A firefly
CC1=C(C(=O)Nc2ccc(C)cc2C)C(c2ccccc2[N+](=O)[O-])n2ncc(C(=O)Nc3ccccc3)c2N1 (stereo not given)
→ 10% | 53%[activator]
CCN(Cc1cc(=O)[nH]c2ccccc12)C(=O)C(C)C
→ -11% | -10%
O=C(Cn1c(NCc2ccccc2)nc2ccccc21)N1CCCC1
→ 174%[activator] | 8%
CSc1cccc(N2C(=O)N(CC(=O)NCc3ccccc3Cl)c3ccccc3S2(=O)=O)c1
→ 15% | -3%
CCCn1c(NCCc2ccccc2)nc2c1c(=O)n(C)c(=O)n2C
→ ? | ?
O=C/C=C/c1ccccc1[N+](=O)[O-]
→ 11% | 0%
CC(C)(C)C(=O)Nc1ccc2nc(SCC(=O)N3CCCC3)sc2c1
→ 36%[activator] | 2%
CCN(CC)Cc1ccc(CNC(=O)/C=C/c2cccs2)cc1
→ 4% | 4%
CN(C)c1ccc(CNC(=O)CN(C)S(=O)(=O)c2ccc3c(c2)c(=O)n(C)c(=O)n3C)cc1
→ -11% | -20%
CCN1CCC(N(Cc2ccc3c(c2)OCO3)C(=O)Nc2cc(Cl)ccc2C(=O)OC)CC1
→ -3% | -11%
COc1ccccc1Cc1nc2ccccc2nc1SC(C)C(=O)NCc1ccco1 (stereo not given)
→ 0% | 3%
Cc1csc(NC(=O)CSc2ccccc2)n1
→ 11% | 0%
O=S(=O)(c1ccccc1)c1nc(-c2cccs2)oc1N1CCOCC1
→ 54%[activator] | 6%
Cc1ccc(-n2c(-c3cccc(C)c3)nc3c(cnn3-c3ccccc3)c2=O)cc1
→ -11% | 9%
COc1cc(OC)c(C2=CCN(S(=O)(=O)N3CCCC(C)C3)CC2)c(OC)c1 (stereo not given)
→ 20% | 5%
O=C(CCC1CCCC1)Nc1nc2ccc(F)cc2s1
→ 23% | 15%
O=C(Nc1nnc(S(=O)(=O)N2CCCC2)s1)c1ccccc1Br
→ 10% | 40%[activator]
O=C(c1cccs1)N(Cc1cccnc1)C1CC1
→ -4% | ?
CN(C)CCCNC(N)=O
→ -10% | 11%
CCCNC(=O)Cn1nc(-c2ccc(C)c(C)c2)c2cnc3ccc(F)cc3c21
→ -16% | 91%[activator]
Nc1ccc(Br)cc1C(=O)c1ccccc1Cl
→ 86%[activator] | 0%
CCOC(=O)c1cc(S(=O)(=O)Nc2cc(C)c(Cl)cc2OC)[nH]n1
→ 54%[activator] | -20%
CC(=O)c1cccc(NC(=O)C(Nc2ccc3oc(C)nc3c2)c2ccccc2)c1 (stereo not given)
→ 0% | 33%[activator]
COc1cccc(Oc2c(C)oc3cc(OCc4ccc(F)cc4)ccc3c2=O)c1
→ 15% | 11%
O=c1c(N2CCN(c3cccc(Cl)c3)CC2)csc2ccc(Cl)cc12
→ 55%[activator] | 47%[activator]
O=C(CCSCc1ccc(Cl)cc1)N1CCN(c2ccccc2F)CC1
→ -12% | -18%
N#Cc1ccc(/C=C/C(=O)c2cccc(N3CCOCC3)c2)cc1
→ 0% | 24%
Cc1c(CCC(=O)Nc2ccc(F)cc2)c(=O)oc2cc(O)ccc12
→ 35%[activator] | 5%
Cc1nn(C)c2c(=O)n(CC(=O)NCc3ccccc3)ccc12
→ 10% | 40%[activator]
CCOc1ccc(NC(=O)CSc2nc3ccccc3nc2N2CCCC2)cc1
→ 6% | 6%
COc1ccccc1/C=C/C(=O)c1ccc(OCc2ccccc2)cc1OCc1ccccc1
→ -3% | 3%
Cc1oc2cc(OCC(=O)Nc3ccccc3F)ccc2c(=O)c1Oc1ccc(F)cc1
→ -5% | -4%
CN1CCN(C(=O)Cn2nc(-c3ccc(Cl)cc3)c3ccccc3c2=O)CC1
→ -6% | 0%
Cc1csc(NC(=O)NC2CC(=O)N(c3ccc(F)cc3)C2)n1 (stereo not given)
→ -10% | -2%
COCCCNC(=O)c1cnc2c(-c3ccc(F)cc3)c(C)nn2c1C
→ -14% | -15%
CCc1nc2nc(C)c(NC(=O)Nc3cccc(C(F)(F)F)c3)c(=O)n2[nH]1
→ -3% | 4%
COc1cccc(C(=O)OCc2nc(N)c3ccccc3n2)c1OC
→ 4% | 0%
CCc1nc(N2CCN(CCO)CC2)c(C#N)c2c1CCCC2
→ -21% | -18%
O=C(CCc1nc(CN2CCN(S(=O)(=O)c3ccc(F)cc3)CC2)no1)N1CCCCC1
→ -13% | -14%
COc1ccc(-c2nc3cc(NC(=O)c4cccc([N+](=O)[O-])c4C)ccc3o2)cc1
→ -4% | 85%[activator]

Rewritten as labelled records: 2 of the compounds above.
CCN(Cc1cc(=O)[nH]c2ccccc12)C(=O)C(C)C
  2A Renilla = -11%
  2A firefly = -10%

CCN1CCC(N(Cc2ccc3c(c2)OCO3)C(=O)Nc2cc(Cl)ccc2C(=O)OC)CC1
  2A Renilla = -3%
  2A firefly = -11%

(more compounds)
Results follow in this order: 2A Renilla | 2A firefly
CCOC(=O)c1ccccc1NC(=O)c1c(-c2ccccc2)noc1C
→ 10% | 14%
O=C(C1CCCCC1)N(Cc1cccnc1)c1nc2c(F)cccc2s1
→ 5% | 76%[activator]
CCOC(=O)c1nc(NCc2ccccc2OC)c2ccccc2n1
→ -5% | 1%
CCOC(=O)CNC(=O)N1[C@H](c2cccs2)[C@@H](C)C(=O)[C@@H](C)[C@@H]1c1cccs1
→ -10% | 4%
COc1cccc(C(=O)c2sc(Nc3cc(C)cc(C)c3)nc2N)c1
→ 39%[activator] | 54%[activator]
NC(=O)c1ccc(-c2nnn(CC(O)COCc3ccc(Cl)cc3)n2)cc1 (stereo not given)
→ 4% | -5%
COc1ccccc1-c1ccnc2c(-c3ccc(Br)cc3)c(C)nn12
→ -5% | -7%
O=C(NCc1cccnc1OCC(F)(F)F)c1ccc(Cl)o1
→ 13% | 5%
COC(=O)c1sccc1S(=O)(=O)Nc1ccc(OC(F)(F)F)cc1
→ 115%[activator] | 8%
CC(=O)Oc1ccc2c(-c3ccc(F)cc3)noc2c1
→ 11% | 235%[activator]
c1ccc(C(Nc2ccc3nnnn3n2)c2ccccn2)cc1 (stereo not given)
→ -1% | 11%
CCOc1ccc(C(=O)Nc2c(C(=O)c3ccccc3)oc3ccccc23)cc1
→ 1% | 0%
CC(Sc1ccccc1)C(=O)N(Cc1ccco1)c1c(N)n(Cc2ccccc2)c(=O)[nH]c1=O (stereo not given)
→ 7% | -6%
CC(C)CNc1nc(-c2ccc3c(c2)CCC(=O)N3)cs1
→ 6% | 123%[activator]
Cc1ccc(NC(=O)Cn2cc3c(n2)CCCC3)cc1Cl
→ -6% | -5%
Cc1ccc(CNc2ncccc2C#N)cc1
→ -1% | 122%[activator]
COc1ccccc1NC(=O)Cn1c(=O)c(CNc2ccc(C)cc2)cc2cc3c(cc21)OCCO3
→ -7% | 0%
CCCCNC(=O)CC(c1ccccc1)c1ccccc1
→ 24% | 8%
COc1ccc(-c2nc3ccccc3n3c(-c4ccc(OC)cc4)c4c(=O)n(C)c(=O)n(C)c4c23)cc1
→ -7% | -6%
N#Cc1ccccc1CSc1nnc(-c2ccccc2)o1
→ 38%[activator] | 300%[activator]
CC(=O)Nc1sccc1C#N
→ 5% | -7%
Cc1cccc2c(=O)c3c(O)cc(OCC(=O)Nc4ccc(Br)cc4)cc3oc12
→ -16% | -3%
CCCN1CCN(c2cc3c(cc2F)c(=O)c(S(=O)(=O)c2ccc(CC)cc2)cn3CC)CC1
→ 33%[activator] | -12%
CCc1ccc(NC(=O)C(NS(=O)(=O)c2cccs2)C(C)C)cc1 (stereo not given)
→ 10% | -9%
CCN(CC)Cc1nc2sc(C(=O)OC)c(C)c2c(=O)[nH]1
→ 10% | 0%
Cc1ccc2c(c1)Sc1ccc(C)cc1S2
→ 5% | 19%
COc1ccc(-c2cn3nc(SCC(=O)Nc4cccc(C)c4C)ccc3n2)cc1
→ 10% | 129%[activator]
Cc1ccccc1N=C1CCCc2ccccc21
→ 12% | 22%
Cc1c(-c2nnc(SCC(=O)Nc3ccc(Br)cc3)o2)nnn1-c1ccc(F)cc1
→ -4% | 13%
Cc1oc(-c2ccccc2)nc1Cn1cccc(C(F)(F)F)c1=O
→ ? | ?
CC(CCc1ccccc1)NC(=O)Cn1c(=O)nc(-c2ccccc2F)c2cc(Cl)ccc21 (stereo not given)
→ -8% | -13%
O=C(COC(=O)CCC1CCCCC1)Nc1ccc2c(c1)OCO2
→ -15% | -6%
COc1ccc(NC(=O)CN2C(=O)C(C)N=C(c3ccccc3)c3ccccc32)cc1OC (stereo not given)
→ 31%[activator] | -2%
Cc1ccc(C(=O)/C=C/c2cn(CC(O)CN3CCc4ccccc43)c3ccccc23)cc1 (stereo not given)
→ 5% | 77%[activator]
CCN1CCN(c2oc(COc3ccc(OC)cc3)nc2C#N)CC1
→ 14% | 17%
O=C(O)CN1CCC(C(=O)O)CC1
→ 7% | 3%
O=C(Nc1ccccc1C(=O)N1CCCCC1)c1nsc2ccccc12
→ 27% | 17%
COC(=O)c1ccccc1NC(=O)Cc1coc2cc(C)cc(C)c12
→ 0% | 7%
COc1ccc(C)cc1NC1(c2ccccc2)C(=O)c2ccccc2C1=O
→ -12% | -8%
O=C(Nc1ccc2c(c1)Cc1ccccc1-2)c1ccc2c(c1)OCCO2
→ -7% | 0%
CCC1CCCCN1CCCNC(=O)CN1C(=O)c2cccnc2Oc2ccc(Cl)cc21 (stereo not given)
→ -11% | -13%
CCCN1CCN(c2ncnc3sc(C(=O)Nc4ccc(C(C)C)cc4)c(C)c23)CC1
→ 3% | -1%
CN1C(=O)Cc2cc(-c3csc(NC4CCCC4)n3)ccc21
→ 5% | 156%[activator]
Cc1ccc2[nH]c(=O)c3cc(C(=O)N(C)c4ccc(Br)cc4)sc3c2c1
→ 9% | 1%
O=C(O)C(c1c[nH]c2ccc(Cl)cc12)N1CCN(C/C=C/c2ccccc2)CC1 (stereo not given)
→ -15% | -7%
COc1ccc(NC2=C(C(=O)N3CCOCC3)S(=O)(=O)c3ccccc32)cc1Cl
→ 82%[activator] | 13%
Cc1ccccc1NC(=O)COc1ccccc1C(N)=O
→ 7% | 146%[activator]
COC(=O)c1sc(-c2ccccc2)cc1NC(=O)Nc1ccc(Cl)cc1
→ -10% | -7%
Cc1ccc(-c2n[nH]c(=O)c3ccccc23)cc1S(=O)(=O)N(C)C
→ -11% | -7%
O=C(Nc1cccnc1)c1cc(=O)c2ccccc2o1
→ -5% | 17%
O=C(c1ccccc1)N1CCN(C/C=C/c2ccccc2)CC1
→ ? | 41%[activator]
CC(=O)N1CCC2(CC1)OC(=O)C(C)=C2C(=O)Nc1ccccc1C(F)(F)F
→ -9% | -19%
Cc1cnc(NC(=O)C2=C(O)c3ccccc3S(=O)(=O)N2C)s1
→ 19%&9% | 17%
CC(=O)N(C)c1ccc(NC(=O)CCC2CCCC2)cc1
→ 27% | 78%[activator]
Cc1c(C(=O)NCc2nnc3n2CCCCC3)oc2ccccc12
→ -6% | 19%
Cc1ccc2c(CC(=O)Nc3cccc(C(F)(F)F)c3)coc2c1
→ 72%[activator] | 1%
Cc1nc(CN2CCN(S(=O)(=O)c3ccccc3Cl)CC2)cs1
→ -5% | -11%
CCC(=O)Oc1ccc(/C=C(\C#N)c2nc3ccccc3[nH]2)cc1OC
→ 39%&68%[activator] | 303%[activator]
O=S(Cc1ccccc1)Cc1c(Cl)cccc1Cl (stereo not given)
→ 5%[1.06 µM] | 8%
CCCCCSc1nc2c(c(=O)[nH]c(=O)n2C)n1CCC
→ 3% | 16%

Part of the list above in order of molecular weight, high to low:
Results follow in this order: 2A Renilla | 2A firefly
CCCN1CCN(c2ncnc3sc(C(=O)Nc4ccc(C(C)C)cc4)c(C)c23)CC1
→ 3% | -1%
Cc1ccc(-c2n[nH]c(=O)c3ccccc23)cc1S(=O)(=O)N(C)C
→ -11% | -7%
CC(=O)N(C)c1ccc(NC(=O)CCC2CCCC2)cc1
→ 27% | 78%[activator]
Cc1ccccc1NC(=O)COc1ccccc1C(N)=O
→ 7% | 146%[activator]

(cont.)
Results follow in this order: 2A Renilla | 2A firefly
COc1ccc2oc(=O)cc(CN(C)Cc3ccccc3)c2c1
→ ? | ?
Cc1nc2ccc(C(=O)NC3CC(C)(C)NC(C)(C)C3)cc2nc1C
→ -6% | 0%
COc1cc(C2CC(=O)NC(SCc3ccccc3)=C2C#N)ccc1O (stereo not given)
→ -15% | -10%
COc1ccc(OC)c(NS(=O)(=O)c2ccc(-c3cc(C)no3)s2)c1
→ 46%[activator] | -14%
CC(C)(C)n1nnnc1SCC(=O)N(Cc1cccs1)c1ccc2c(c1)OCCO2
→ 0% | 0%
Cc1ccc(-n2c(Cc3ccccc3)nnc2SCc2nc(-c3cccs3)no2)cc1
→ 71%[activator] | -24%
Cc1oc(-c2cccs2)nc1CC(=O)Nc1cccc(C#N)c1
→ 134%[activator] | 10%
C=CCSc1nc2c(c(=O)n(C)c(=O)n2C)n1CC(=C)C
→ -8% | 2%
COc1cc(Cl)c(C)cc1-n1cc(C(=O)c2cc(Br)ccc2O)cc(C#N)c1=O
→ 13% | -2%
CCCCCn1c(N2CCN(Cc3ccc(Br)cc3)CC2)nc2c1c(=O)[nH]c(=O)n2C
→ 7% | 18%
COc1cc(Nc2nc3ccccc3nc2NS(=O)(=O)c2cccc(C)c2)cc(OC)c1
→ -5% | -1%
CC(=O)Nc1ccc(CC(=O)Nc2cccc3cccnc23)cc1
→ 1% | 18%
COc1ccc(C)cc1NC(=O)NCc1cccn1Cc1ccccc1
→ 4% | -11%
O=C(Nc1ccc2oc(-c3cccnc3)nc2c1)c1ccc(Br)cc1
→ -5% | 3%
Cc1cccc(Cn2c(CNS(=O)(=O)c3ccc(Cl)s3)nc3cccnc32)c1
→ 104%[activator] | -4%
Cc1ccccc1Cn1c2ccccc2c2cnn(CC(=O)NCCCc3ccccc3)c(=O)c21
→ -10% | -11%
O=C(CCCc1c[nH]c2ccccc12)NCc1ccccc1F
→ 11% | 31%[activator]
C=CCNc1nc2c(c(=O)n(C)c(=O)n2C)n1CCC(C)C
→ 16µM* | 28µM*
